Screening results deposited in PubChem by National Center for Advancing Translational Sciences (NCATS).
CtBP-E1A blk: CtBP/E1A binding inhibition; AlphaScreen GST-E1A/His-CtBP binding, 1536-well; stronger effect = lower value; control for the full effect not named in the record; activity change, % (no concentration beside the values); 0.49% of 340,000 active; in the data active means activity change below about -65%; inconclusive means about -30% to -65%; inactive means above about -30%; note: % is set by controls: 0 for no effect and ±100 for the full control effect; compound concentration not given in the record
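Steps: dispense buffer (Tris pH 8.0, NaCl 300 mM, TCEP 1 mM, BSA, Tween 20); add 5X protein mix (GST-E1A, His-CtBP, 125 nM each); pin 23 nL compound; 2 h at 37 °C, dark; add 5X beads (50 ug/mL); 1 h; read.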
Sfp inh: blocks B. subtilis Sfp PPTase activity | Q9F4F7 | Biochemical Sfp PPTase activity, qHTS | Potency, µM, without a hit: max response, negative = inhibition, usual class: inhibitors | 3.5% of 310,000 active; active = well fitted inhibition curve with a large enough effect; inconclusive = small, poorly fitted or top-dose-only effect, or another doubt; inactive = no such curve, though single readings can be large or run the other way;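 note: the enzyme is Sfp with the accession as filed and its product quenches rhodamine fluorescence; potency is the fitted concentration of half-maximal effect; 0% = enzyme reaction without inhibitor and -100% = no enzyme wells; top concentration of the series not given in the record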
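Fluorescence-quenching assay: 15 nM Sfp-PPTase preincubated 15 min at room temperature with compound, then 5 uM rhodamine-CoA and 12.5 uM BHQ-2-labelled YbbR peptide added. Fluorescence (ex 525/em 598 nm) read at start and after 30 min; difference gives rate.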
TRPV1 PAM: enhances activation of the human vanilloid receptor TRPV1 | TRPV1-expressing cells, Fluo-8 calcium influx, capsaicin EC20 potentiation; host cell line not named in the record; control for the full effect not named in the record | 0.02% of 320,000 active | Q8NER1 | AID 540277 | potentiation, % at 8.33 µM; active means potentiation above 80%; inconclusive means 30% to 80%; inactive means below 30%; note: 0% is about no effect
Target sequence (Q8NER1 whole entry, looked up): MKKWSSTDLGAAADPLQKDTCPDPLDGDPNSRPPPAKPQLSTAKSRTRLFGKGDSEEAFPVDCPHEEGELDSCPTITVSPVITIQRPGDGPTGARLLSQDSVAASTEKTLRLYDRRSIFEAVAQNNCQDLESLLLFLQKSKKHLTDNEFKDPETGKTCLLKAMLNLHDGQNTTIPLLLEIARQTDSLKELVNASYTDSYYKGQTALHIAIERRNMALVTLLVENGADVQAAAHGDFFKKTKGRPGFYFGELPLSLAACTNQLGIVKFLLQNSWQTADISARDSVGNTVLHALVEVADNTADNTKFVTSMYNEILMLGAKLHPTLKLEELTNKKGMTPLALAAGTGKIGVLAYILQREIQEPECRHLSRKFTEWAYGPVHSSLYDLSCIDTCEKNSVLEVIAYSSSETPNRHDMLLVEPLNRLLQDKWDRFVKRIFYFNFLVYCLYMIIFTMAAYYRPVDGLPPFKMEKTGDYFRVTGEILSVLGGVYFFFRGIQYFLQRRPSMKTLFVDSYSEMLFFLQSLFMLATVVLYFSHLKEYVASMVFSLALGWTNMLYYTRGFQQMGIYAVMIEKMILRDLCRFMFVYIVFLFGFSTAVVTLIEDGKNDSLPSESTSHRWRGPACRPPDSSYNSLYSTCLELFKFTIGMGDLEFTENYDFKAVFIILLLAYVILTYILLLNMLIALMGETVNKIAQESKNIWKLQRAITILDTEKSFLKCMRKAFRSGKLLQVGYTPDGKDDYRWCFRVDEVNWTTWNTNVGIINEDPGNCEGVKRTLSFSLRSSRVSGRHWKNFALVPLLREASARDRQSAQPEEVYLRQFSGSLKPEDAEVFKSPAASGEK
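Cells expressing TRPV1 were dye-loaded with Fluo-8 and read kinetically: 10 s baseline, 3 min after compound (agonist portion), then 2 min after EC20 capsaicin (allosteric enhancer portion). Calcium-bound dye fluorescence at 480/520 nm.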
gsp agonist: gsp mutant agonism; gsp mutant cells, cAMP HTRF, 30 min; control for the full effect not named in the record; Potency, µM (series often up to 76.9 µM), inactives show top-dose activation (cAMP increase), actives largely listed as activators; 0.13% of 340,000 active; active = well fitted activation curve with a large enough effect; inconclusive = small, poorly fitted or top-dose-only effect, or another doubt; inactive = no such curve, though single readings can be large or run the other way; cell line not stated here;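 note: phosphodiesterase inhibitor Ro 20-1724 added with compounds to block cAMP breakdown; potency is the fitted concentration of half-maximal effect; nearly all actives have a fitted effect of over 60% in size; about a fifth of the inactives were tested at one dose only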
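Cells stably selected in G418 were plated at 2000/well, grown 16-24 hr, then given compounds in DMSO with the PDE inhibitor […] (300 uM solution added) for 30 min at 37C; cAMP was read by HTRF.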
ClpP mod: qHTS Assay for Activators of ClpP | Potency, µM (titrated, usually from 57.5 µM), without a hit: at the top dose activity change, negative = active | purified B. subtilis ClpP, FRET peptide cleavage, 20 min | ATP-dependent Clp protease proteolytic subunit (Bacillus subtilis (strain 168)), P80244 | AID 651965, 2013 | 1.9% of 340,000 active; active = well fitted falling curve with a large enough effect; inconclusive = small, poorly fitted or top-dose-only effect; inactive = no such curve, though single readings can be large or run the other way; note: potency is the fitted concentration of half-maximal effect; the source files actives as falling curves though it sought activators and does not explain the sign; nearly all actives have a fitted effect of over 65% in size; many hits overshoot -100%
Target sequence (P80244 whole entry, looked up): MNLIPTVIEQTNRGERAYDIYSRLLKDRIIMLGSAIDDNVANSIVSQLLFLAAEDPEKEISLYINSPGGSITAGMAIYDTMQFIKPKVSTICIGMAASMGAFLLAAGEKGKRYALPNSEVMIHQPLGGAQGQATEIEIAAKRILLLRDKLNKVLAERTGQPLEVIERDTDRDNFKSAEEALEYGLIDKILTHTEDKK
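ClpP 10 microg/mL final, pH 8 Tris/KCl buffer with BSA, glycerol, Tween-20; compound pinned in; FRET-FV substrate; RT 20 min; Ex320/Em430; ΔFRET vs ADEP 5.8 microM, DMSO, no enzyme.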
Menin MLL FP FL: inhibitors of human menin-MLL interaction, wild-type MLL peptide | Fluorescence polarization, fluorescein-MLL peptide displacement from menin | FP activity change, % at 61.4 µM | 290,000 tested, under 10 active; inconclusive = falling polarisation curve, or a change in total fluorescence; inactive = total fluorescence flat and polarisation flat or rising; no compound was filed as active; the % refers to the polarisation; negative = inhibition;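 note: % of control where 0% means no effect; inhibitors lower the polarisation; unlabelled MLL peptide was the positive control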
gsp antag: antagonizes gsp, the McCune-Albright syndrome mutation. Potency, µM (doses to about 76.9 µM), for inactives: at the top dose activity change, negative = inhibition, actives largely listed as inhibitors. gsp-mutant cells, cAMP HTRF, 30 min; control for the full effect not named in the record. 0.4% of 340,000 active. AID 624288; active = falling curve of any shape with a large fitted effect; inconclusive = falling curve, mostly with a smaller effect; inactive = flat or rising curve; cell line not stated here;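 note: intracellular cAMP measured with PDE inhibitor Ro 20-1724 present during compound exposure; potency is the fitted concentration of half-maximal effect; % is set by controls: 0 for no effect and ±100 for the full control effect; nearly all actives have a fitted effect of over 65% in size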
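Measurement of cellular cAMP by homogeneous time-resolved fluorescence following a 30 min compound exposure at 37C. The PDE inhibitor […] was present throughout; the assay buffer was DPBS with 0.05% BSA and 0.005% Tween 20.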
Active calls of the source: *; ? = inconclusive; . = not tested or not shown; & = joins results of further samples; [ ] = another dose, or the depositor's remark. An unsorted share of the library; 5.3% or so of the library scored in one or more.

SMILES	CtBP-E1A blk	Sfp inh	TRPV1 PAM	gsp agonist	ClpP mod	Menin MLL FP FL	gsp antag
COC(=O)[C@@]12OC[C@]34[C@H]([C@@H](O)[C@@H]1O)[C@@]1(C)C(=O)C(O[C@@H]5OC(CO)[C@@H](O)[C@@H](O)[C@@H]5O)=C[C@@H](C)[C@@H]1C[C@H]3OC(=O)[C@H](OC(=O)/C=C(\C)C(C)(C)OC(C)=O)[C@@H]24 (stereo not given in full)	5	.	3	-40%[inhibitor]	?	.	3%
Cc1cc(/C=C2/SC(=S)N(c3ccc([N+](=O)[O-])cc3)C2=O)c(C)n1-c1cccnc1	-8	-27%	13	19%	-0.9%	-20	?
Cc1ccc(S(=O)(=O)NNC(=S)Nc2ccc(Cl)cc2)cc1	1	14%	5	-4%[15.4 µM]	28µM*	0.0	12%
COc1ccccc1C(=O)Nc1nnc(SCC(=O)NC2CCCC2)s1	-29	11%	0	0%	-5.1%	.	-2%
CCOc1ccc(CCNC(=O)COC(=O)COc2ccc(Br)cc2)cc1OCC	-2	3%	8	-17%	1.8%	.	5%
CCS(=O)(=O)N1CCCC(C(=O)Oc2ccc(Br)cc2)C1 (stereo not given)	-5	4%	7	-4%	0.3%	-3.8	12%
S=C(NCc1cccs1)Nc1cccc(Cl)c1	9	28%	-5	5%	-0.6%	7.0	-1%
CCOC(=O)N1CCN(C(=O)c2cc(-c3ccc(F)cc3)[nH]c2C)CC1	-4	-4%	-11	22%	-3.6%	-1.4	-24%
COc1ccc(C(CNC(=O)C2CC(=O)N(Cc3ccccc3)C2)N2CCCC2)cc1 (stereo not given)	.	.	-12	-28%	-5.7%	.	3%
Cc1cccc(Cn2nc(C)cc2NC(=O)Cn2cc([N+](=O)[O-])cn2)c1	0	10%	20	-3%	.	-2.5	5%
CC1(C)CC(C#N)(N2CCOCC2)CCO1 (stereo not given)	6	14%	-6	-15%	-1.2%	0.1	-6%
OCCNCc1cccc(OCc2ccccc2Cl)c1	-13	18%	-3	0%[15.4 µM]	.	0.0	.
CCc1cc2c(CN3CCN(CC)CC3)cc(=O)oc2cc1O	1	5%	-7	0%	28µM*	5.5	17%
CCCCCN(C(=O)CCC(=O)OCC(=O)c1ccc(C(C)(C)C)cc1)c1c(N)n(CCCC)c(=O)[nH]c1=O	-2	.	-4	-1%	0.9%	.	2%
CC1(C)CC(NC(=O)C23CCC(C)(/C(=N/O)C2)C3(C)C)CC(C)(C)N1 (stereo not given)	4	1%	5	16%	0.1%	0.7	-3%
Cc1cccc(CSc2nnc3c(n2)[nH]c2ccccc23)c1	3	29%	-1	?	-0.5%	-2.0	3%
O=C(c1ccc2nc(N3CCOCC3)sc2c1)N1CCN(C(=O)c2ccco2)CC1	3	10%	-11	-20%	-10%	0.4	-1%
O=C(COC(=O)COc1ccccc1F)NCc1ccco1	1	.	.	-59%	0.5%	.	11%
CCOC(=O)c1c(S(=O)(=O)NCC(=O)NCc2ccccc2)c(C)n(C)c1C	-2	2%	5	6%	0.0%&-0.7%	.	5%
O=C(NCc1ccccn1)c1ccc2nc(-c3ccco3)c(-c3ccco3)nc2c1	.	14µM*	-3	.	.	-5.2	.
O=C(O)C1CC(=O)N(Cc2cccs2)C1 (stereo not given)	2	1%	3	20%	-5.3%	-2.5	14%
COc1ccc(S(=O)(=O)N(C)c2ccc(C(=O)Nc3c(C)n(C)n(-c4ccccc4)c3=O)cc2)cc1	4	0%	3	-50%[inhibitor]	1.5%	-1.3	4%
CC(=O)Oc1cc(O)c2c(=O)c(OC(C)=O)c(-c3ccc(OC(C)=O)c(OC(C)=O)c3)oc2c1	-26	.	.	.	1.0%	.	0%
COc1ccc(S(=O)(=O)NNC(=O)C(=O)NNc2ccccn2)cc1	?	-6%	.	-22%	0.3%	0.2	11%
O=C(/C=C/c1ccc(Cl)c(Cl)c1)Nc1cccnc1	7	.	.	20%	.	.	-4%
CCOCC(=O)Nc1nnc(COC)s1	3	-7%	0	2%	-0.9%	0.5	14%
O=C(COC(=O)CSc1ccc2ccccc2c1)NC1CCCC1	5	-2%	1	0%	0.8%	-1.9	9%
O=c1oc2ccc(Cl)cc2nc1/C=C(\O)c1ccco1	12	?	18	-17%[15.4 µM]	1.5%	9.4	19%
CCOc1ccc(N2C(=O)CC(C(C)c3ccccc3)C2=O)cc1 (stereo not given)	.	-1%	-17	-15%	0.0%	-3.6	14%
Cc1ccc(-n2nc3c(=O)n(CC(=O)NC(C)CCc4ccccc4)nc(C)c3c2C)cc1 (stereo not given)	.	17%	7	-28%	-0.7%	-8.0	-4%
O=C(CSc1nnc(SCc2cccc3ccccc23)s1)c1ccc2c(c1)OCO2	9	17%	2	-67%[inhibitor]	-4.5%	0.9	6%
Cc1[nH]c2ccccc2c1C1=CN2CCS(=O)(=O)N=C2S1	1	-2%	-2	?	-0.6%	?	3%
COc1cc(NC(=O)Nn2cnnc2)cc(OC)c1OC	-8	21%	17	-4%	.	0.9	9%
COc1cccc(N2CCN(C(=O)c3cn(Cc4ccccc4)nc3-c3cccnc3)CC2)c1	4	.	0	6%	-1.2%	.	22%
CCN1CCN(Cc2ccc(OCc3ccccc3)cc2)CC1	38	-21%	-5	-9%	0.7%	-1.6	8%
COc1ccc(NC(=O)N(C)C[C@H]2Oc3ccc(NC(=O)CCN4CCOCC4)cc3C(=O)N([C@H](C)CO)C[C@@H]2C)cc1	6	.	.	.	-1.8%	.	14%
O=C(NN=C1CCCCCC1)c1ccc(Cl)s1	-11	2%	17	1%	1.7%	4.7	5%
CCc1cccc2c(C=C(C#N)C#N)cn(CC(=O)N3CCCCC3)c12	-1	-10%	.	-4%	-1.1%	-23	-16%
COc1ccc(CCNC(=O)COc2cc(O)c3c(c2)OC(C)(C)CC3=O)cc1OC	0	7%	-4	.	-0.3%	1.1	-9%
Cc1cccc(N(C(=O)c2snc(C(N)=O)c2N)C(C(=O)NC2CCCC2)c2ccco2)c1 (stereo not given)	1	3%	-3	0%[15.4 µM]	.	-0.2	?
C/C(=N\NC(=O)CO/N=C(\C)c1cccs1)c1ccc(N)cc1	-2	2%	-4	-68%[inhibitor]	-7.1%	-2.2	-9%
CC1(CCc2ccccc2)NC(=O)N(CC(=O)N2CCc3ccccc32)C1=O (stereo not given)	1	.	.	-1%	-2.6%	.	.
COc1cccc(/C=N/NC(=O)c2ccoc2C)c1O	-92*	10%	-5	4%	-1.6%	-1.0	6%
CCOc1ccccc1NC(=O)n1ncc2c(C)cccc21	0	-2%	0	1%	.	-3.1	7%
COc1ccc(C)cc1NC(=O)C(=O)c1cn(CC(=O)N2CCCC2)c2ccccc12	-3	-2%	-14	?	1.0%	.	?
COc1ccc(CNC(=O)C2CC(C)=CCC2C(=O)O)cc1 (stereo not given)	4	7%	7	-7%	0.1%	0.7	9%
CCCCS(=O)(=O)N1CCN(S(=O)(=O)c2cccs2)CC1	10	23%	5	8%[15.4 µM]	1.3%	.	18%
O=C1CC(=O)N(Cc2ccco2)C(=S)N1	-6	22µM*	3	25%	1.1%	?	-2%
Oc1cccc(C=NN=C2c3ccccc3-c3ccccc32)c1	?	.	.	22%	-2.2%	.	3%
O=C(CCCc1nc2ccccc2s1)N1CCN(c2ccccc2)CC1	3	45µM*	2	22%	-2.3%	-4.0	-4%
CCCCOc1ccc(C(C)NC(=O)CCS(=O)(=O)Cc2ccc(Cl)cc2)cc1 (stereo not given)	44	11%	0	?	1.2%	0.2	-13%
CN(C)c1ccc(C(=S)N2CCN(c3ccc([N+](=O)[O-])cc3)CC2)cc1	-7	3.5µM*	-15	1%[15.4 µM]	.	-0.8	-1%
C/C(=N\N1CCN(c2ccc(Cl)cc2)CC1)c1cccc([N+](=O)[O-])c1	-30	-14%	?	7%	.	1.5	-7%
Nc1ccc(Nc2ccc([N+](=O)[O-])cc2[N+](=O)[O-])cc1	-28	0%	3	-63%[inhibitor]	1.9%	2.9	5%
Cc1ccc(N(CC(=O)NC2CCCC2)C(=O)CCC(=O)Nc2nccs2)cc1C	-9	11%	16	-2%[15.4 µM]	.	.	16%
O=C(c1cnc(Cl)c(Cl)c1)N1CCC(Cc2ccccc2)CC1	0	11%	-15	-3%[15.4 µM]	.	0.5	7%
CCOC(=O)/C(=N\O)C1=NC(C)(C)Cc2ccccc21	-25	-1%	-6	34%	.	1.8	6%
CCOCC(O)CSCc1ccc(Cl)cc1 (stereo not given)	-9	15%	10	10%	1.4%	1.4	7%
O=C(O)c1cc(-c2cccs2)nc2ccc(Br)cc12	.	16%	30	.	.	-4.6	.
CCC(C)N1C(=O)/C(=C/c2c(NCCCOC(C)C)nc3c(C)cccn3c2=O)SC1=S (stereo not given)	-3	11%	7	-2%	-5.6%	?	-5%
(cont.)
SMILES	CtBP-E1A blk	Sfp inh	TRPV1 PAM	gsp agonist	ClpP mod	Menin MLL FP FL	gsp antag
Cc1nn(Cc2ccc(Cl)cc2)c(C)c1NC(=O)c1cc(-c2ccc3c(c2)OCO3)on1	-3	0%	1	-28%	-2.9%	1.6	0%
CCOc1ccc(NC(=O)CC2C(=O)NCCN2C(=O)Nc2ccccc2)cc1 (stereo not given)	-3	7%	5	-39%[15.4 µM]	-1.9%	1.0	7%
COc1ccc(NC(=O)C(C/C=C(/C)Cl)C(C)=O)cc1 (stereo not given)	1	23%	2	0%	-1.7%	-1.1	-7%
Cc1ccccc1NS(=O)(=O)c1ccc2[nH]cc(C(=O)N(C)Cc3ccco3)c(=O)c2c1	-1	-97%	6	-3%	?	0.7	-7%
CC(=O)NC(Cc1cccc(C)c1)C(=O)NC1CCN(c2ncccc2[N+](=O)[O-])CC1 (stereo not given)	-3	-8%	9	?	16µM*	8.9	-16%
CC(OC(=O)CCC(=O)c1cccs1)C(=O)NC1CCCCC1C (stereo not given)	0	.	-9	1%	-2.8%	.	-5%
CC1(NC(=O)Cc2c(Cl)cccc2Cl)CCS(=O)(=O)C1 (stereo not given)	6	.	-2	7%	0.3%	.	16%
